# D2 agonist: agonists of human D2 dopamine receptor (beta-arrestin); DiscoveRx PathHunter D2 beta-arrestin, luminescence, 90 min; 100% = 57 uM dopamine signal; P14416; activation, % (concentration not given with the values); 360,000 compounds, 0.084% hits; in the data active = activation above about 40%; inconclusive = about 15% to 40%; inactive = below about 15%; also: the text of the record calls up to 30% inactive
# Target sequence (P14416 whole entry, looked up): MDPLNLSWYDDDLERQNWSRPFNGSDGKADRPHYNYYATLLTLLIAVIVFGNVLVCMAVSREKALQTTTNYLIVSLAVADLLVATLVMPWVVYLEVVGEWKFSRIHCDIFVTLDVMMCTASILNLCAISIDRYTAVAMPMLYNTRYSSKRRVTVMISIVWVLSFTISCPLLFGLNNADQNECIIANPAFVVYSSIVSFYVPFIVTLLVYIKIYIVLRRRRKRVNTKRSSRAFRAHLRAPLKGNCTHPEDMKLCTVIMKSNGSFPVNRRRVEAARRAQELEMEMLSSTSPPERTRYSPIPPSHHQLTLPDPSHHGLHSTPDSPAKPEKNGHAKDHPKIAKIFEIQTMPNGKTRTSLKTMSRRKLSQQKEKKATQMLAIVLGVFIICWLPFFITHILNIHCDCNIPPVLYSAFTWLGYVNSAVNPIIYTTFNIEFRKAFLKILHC
#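 DiscoveRx PathHunter D2 beta-arrestin cells (2,100/well) attached overnight, then compound-stimulated 90 min at 37 C in HBSS/10 mM HEPES/0.1% Tween-20 buffer; beta-galactosidase complementation read by luminescence after 1 h at ambient temperature. Dopamine 57 uM final (EC100) as control.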
# ClpP mod: qHTS Assay for Activators of ClpP. ATP-dependent Clp protease proteolytic subunit (Bacillus subtilis (strain 168)), P80244. purified B. subtilis ClpP, FRET peptide cleavage, 20 min. Potency, µM (series often up to 57.5 µM), for the others: top-dose activity change, negative = active. 340,000 compounds, 1.9% hits. AID 651965, 2013; active = well fitted falling curve with a large enough effect; inconclusive = small, poorly fitted or top-dose-only effect; inactive = no such curve, though single readings can be large or run the other way; also: potency is read from the fitted curve at half-maximal effect; the source files actives as falling curves though it sought activators and does not explain the sign; nearly all actives have a fitted effect of over 65% in size; many hits overshoot -100%
# Target sequence (P80244 whole entry, looked up): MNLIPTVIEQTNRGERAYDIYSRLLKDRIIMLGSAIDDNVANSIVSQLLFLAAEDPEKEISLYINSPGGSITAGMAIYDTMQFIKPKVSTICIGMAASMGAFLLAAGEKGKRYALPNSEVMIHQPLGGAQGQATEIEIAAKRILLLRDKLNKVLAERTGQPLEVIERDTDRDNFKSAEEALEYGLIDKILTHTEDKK
#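 Buffer: 100 mM Tris/HCl pH8, 100 mM KCl, 0.05% low protease BSA, 2.5% glycerol, 0.01% Tween-20. ClpP 10 microg/mL final; 20 min RT; delta FRET normalized to ADEP and DMSO controls.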
# Sfp inh: Sfp phosphopantetheinyl transferase inhibition; Biochemical Sfp PPTase activity, qHTS; Potency, µM, for inactives: max response, negative = inhibition, actives largely listed as inhibitors; 310,000 compounds, 3.5% hits; active = well fitted inhibition curve with a large enough effect; inconclusive = small, poorly fitted or top-dose-only effect, or another doubt; inactive = no such curve, though single readings can be large or run the other way;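 also: the enzyme is Sfp with the accession as filed and its product quenches rhodamine fluorescence; potency is read from the fitted curve at half-maximal effect; 0% = enzyme reaction without inhibitor and -100% = no enzyme wells; top concentration of the series not given in the record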
#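 After 15 min at room temperature with compound, 15 nM Sfp received 5 uM rhodamine-CoA plus 12.5 uM BHQ-2-ybbR (50 mM Hepes pH 7.6, 10 mM MgCl2). Rate came from the fluorescence difference over 30 min, ex 525/em 598 nm.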
# gsp antagonist: gsp mutant antagonism. gsp-mutant cells, cAMP HTRF, 30 min; control for the full effect not named in the record. Potency, µM (series often up to 76.9 µM), for the others: at the highest dose activity change, negative = inhibition, most hits filed as inhibitors. 340,000 compounds, 0.4% hits. AID 624288; active = falling curve of any shape with a large fitted effect; inconclusive = falling curve, mostly with a smaller effect; inactive = flat or rising curve; cell line not stated here;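 also: intracellular cAMP measured with PDE inhibitor Ro 20-1724 present during compound exposure; potency is read from the fitted curve at half-maximal effect; % is scaled to controls: 0 for no effect and ±100 for the full control effect; nearly all actives have a fitted effect of over 65% in size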
#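 Cells in G418 medium, seeded 16-24 h, 37C; buffer exchange to DPBS + 1 mM CaCl2, 0.5 mM MgCl2, 0.05% BSA; cpds in DMSO + […] (300 uM stock), 30 min 37C; HTRF cAMP detection.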
# Menin MLL FP FL: displaces fluorescein MLL peptide from human menin; 290,000 tested, under 10 active; FP activity change, % at 61.4 µM; Fluorescence polarization, fluorescein-MLL peptide displacement from menin; AID 1766; inconclusive = falling polarisation curve, or a change in total fluorescence; inactive = total fluorescence flat and polarisation flat or rising; no compound was filed as active; the % refers to the polarisation; negative = inhibition;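 also: % of control where 0% means no effect; inhibitors lower the polarisation; unlabelled MLL peptide was the positive control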
# gsp ag: agonists of gsp mutant (McCune-Albright syndrome); gsp mutant cells, cAMP HTRF, 30 min; control for the full effect not named in the record; Potency, µM (doses to about 76.9 µM), without a hit: at the highest dose activation (cAMP increase), hits mostly activators; 340,000 compounds, 0.13% hits; active = well fitted activation curve with a large enough effect; inconclusive = small, poorly fitted or top-dose-only effect, or another doubt; inactive = no such curve, though single readings can be large or run the other way; cell line not stated here;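 also: phosphodiesterase inhibitor Ro 20-1724 added with compounds to block cAMP breakdown; potency is read from the fitted curve at half-maximal effect; nearly all actives have a fitted effect of over 60% in size; about a fifth of the inactives were tested at one dose only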
#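 Cells in DMEM/10% FBS with G418 were pretreated with compounds in DMSO plus […] (300 uM stock) for 30 min at 37C. cAMP was measured by HTRF (cAMP-d2 plus anti-cAMP antibody-K) after 30 min at room temperature.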
# PINK1 modulator: changes PINK1 expression | 410,000 compounds, 0.2% hits | Potency, µM (titrated, usually from 76.6 µM), inactives show at the highest dose activation (PINK1 increase), most hits filed as activators | PINK1 immunofluorescence, high-content cytometry, 24 h; active = well fitted activation curve with a large enough effect; inconclusive = small, poorly fitted or top-dose-only effect; inactive = flat fitted curve, though single readings scatter; cell line not stated here;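 also: potency is read from the fitted curve at half-maximal effect; % of control where 0% means no effect; nearly all actives have a fitted effect of over 65% in size; a mitochondrial uncoupler was the plate control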
#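 Stable cell line treated 24 h with compounds at 5 concentrations (CCCP controls), then fixed and immunostained for PINK1 plus nuclear and cell stains; PINK1 immunofluorescence quantified by laser-scanning microplate cytometry.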
# Numbers without * were called inactive; ? = inconclusive; . = not tested or not shown; & = joins results of further samples; [ ] = another dose, or the depositor's remark.
SMILES,D2 agonist,ClpP mod,Sfp inh,gsp antagonist,Menin MLL FP FL,gsp ag,PINK1 modulator
CN(C)S(=O)(=O)c1cccc(C(=O)OCC(=O)N2c3ccccc3NC(=O)C2(C)C)c1,0.0,2.4%,4%,-6%,1.2,-22%,-0.7%
c1ccc2c(c1)OCC(CNc1ncnc3sccc13)O2 (stereo unspecified),6.6,-1.2%,4%,-1%,-0.9,-2%[15.4 µM],2.6%
CC(C)(C)OC(=O)CNC(=O)c1nc[nH]c1C(=O)N1CCc2ccccc2C1,-1.7,0.8%,18%,-1%,-0.8,-35%[inhibitor],-0.4%
Cc1ccc(N2CCN(CC(O)COc3ccc([N+](=O)[O-])cc3)CC2)cc1 (stereo unspecified),2.9,.,15%,2%,-3.4,-8%,-0.9%
N#Cc1c(NC(=O)c2ccc([N+](=O)[O-])o2)sc2c1CCC2,0.5,1.2%,-14%,-31%,-7.5,-4%[15.4 µM],?
O=C(Nc1ccc(F)cc1)c1oc2ccccc2c1NC(=O)C1CCCC1,-1.7,86%,21%,-13%,1.3,-21%,?
O=C(NNC(=O)c1ccccc1-n1cccc1)c1ccccc1,-0.9,0.4%,11%,5%,5.5,-5%,-3.6%
Cc1cccc(OCC(=O)NN2C(=O)C3C4C=CC(O4)C3C2=O)c1 (stereo unspecified),4.0,.,40µM*,9%,2.4,?,0.7%
CCc1nnc(NC(=O)CSc2nnc(-c3ccccc3OC)n2-c2ccccc2)s1,-5.3,-0.1%,22%,?,0.2,-4%,-3.0%
COc1ccc(-c2sc(Nc3ccccc3)n[n+]2-c2ccc(F)cc2)cc1Br,-5.0,-4.8%,15%,-1%,-0.7,23%,1.1%
CC(C)OC(=O)CC(=O)CSc1nc2c(cc1C#N)CCCC2,-2.4,131%,-18%,2%,7.1,7%,0.5%
O=C(CSCCO)Nc1cccc2ccccc12,0.4,-0.1%,-21%,3%,1.1,-2%,-4.2%
NCCCNc1nc(N)c([N+](=O)[O-])c(NC2CCCCC2)n1,-4.3,0.6%,-12%,-3%,-3.5,22%,-1.5%
CCN(CC)S(=O)(=O)c1cccc(C(=O)NCc2ccccc2)c1,-0.8,.,-5%,-36%,0.7,25%[15.4 µM],0.4%
CCS(=O)(=O)N1CCC(C(=O)Nc2cc(C)ccc2O)CC1,2.5,-5.3%,27%,4%,8.0,-22%,1.8%
N#Cc1ccc(C(=O)Nc2cccc(NC(=O)c3ccco3)c2)c(F)c1,0.3,3.8%,8%,-9%,-1.2,3%[15.4 µM],4.7%
O=C(O)COc1ccccc1C1C2C(=O)N(c3ccc(F)cc3)C(=O)C2ON1c1ccccc1 (stereo unspecified),0.0,1.5%,15%,-8%,1.5,-24%,2.1%
Oc1ccccc1Oc1ncc(Br)c(N2CCOCC2)n1,-4.4,-2.5%,11%,7%,1.4,1%,-1.6%
CCc1nc(NCC2CCCN2CC)c2nnn(Cc3ccccc3F)c2n1 (stereo unspecified),-1.9,-5.3%,-7%,8%,-0.3,-36%[inhibitor],-0.7%
CNC(=S)N(Cc1ccc(OC)cc1)C1CC(=O)N(c2ccc(Cl)cc2)C1=O (stereo unspecified),1.0,1.2%,-1%,-8%,1.2,-18%,?
COc1ccc2c(c1OC)C(=O)N1N=C(c3ccccc3)CC21 (stereo unspecified),-1.6,-2.2%,22%,7%,-0.5,0%,2.3%
Cc1ccc(CNC(=O)c2ccc(Cn3cc(-c4ccc(C)cc4)nc3-c3ccncc3)cc2)cc1,-2.4,4.6%,5%,-13%,6.5,.,-0.5%
CC(=O)c1sc(-c2cccc(Cl)c2)nc1C,-5.5,0.1%,1%,3%,-4.9,20%,2.6%
COc1cc(S(=O)(=O)NC2CCCCC2)c(C)cc1C,5.8,.,-2%,2%,0.6,0%,?
CC(=O)N(CCP(=O)(c1ccccc1)c1ccccc1)Cc1ccco1,-3.7,-2.4%,5%,2%,3.3,-17%,-1.6%
CC(NC(=O)[C@@H](C)NC(=O)[C@@H]1Cc2ccccc2CN1C(=O)OC(C)(C)C)c1ccccc1 (stereo partly specified),3.8,-0.1%,7%,-3%,.,-33%[inhibitor],0.6%
COc1cccc(Cn2c(=O)c(CCc3ccccc3)nc3cnc(N(C)C)nc32)c1,.,.,-8%,.,?,.,0.7%
CC(C)c1nnc(SCC(=O)NC2CCCC2)n1C,2.2,.,7%,14%,-12,-29%,0.8%
O=C(O)C(NS(=O)(=O)c1ccc(F)cc1)c1ccccc1 (stereo unspecified),2.0,.,14%,6%,2.1,0%,0.6%
COc1ccc(-c2nc3ccc(Cl)cn3c2Cc2cccc(Cl)c2)cc1OC,0.9,4.4%,.,.,.,.,3.0%
COc1ccccc1CC(=O)N1CCN(c2cccc(Cl)c2)CC1,0.7,-0.6%,-9%,-5%,-6.5,-7%[15.4 µM],1.6%
COc1ccc(C(=O)NCCNC(=O)c2cc(OCC(F)(F)F)ccc2OCC(F)(F)F)cc1,1.0,0.1%,4%,-2%,0.1,12%,4.3%
CSC1=NC(C)N2C(SC)=NC(C)N12 (stereo unspecified),-3.5,-1.8%,12%,-5%,5.1,3%,0.6%
CC(=O)Nc1cc(C(=O)N2CCOCC2)ccc1S(=O)(=O)c1ccc(C)cc1,-1.8,-3.5%,8%,1%,0.1,-5%,-1.3%
O=C(NCc1ccco1)c1cc(C(=O)C2CC2)c[nH]1,-0.9,-0.6%,-22%,-3%,0.1,-38%[inhibitor],1.1%
CC(=O)N1CCc2cc(S(=O)(=O)C(C)CC(=O)NCc3ccc(C)o3)ccc21 (stereo unspecified),-1.2,-1.9%,-24%,-13%,4.1,-17%,0.4%
COc1cc(C)c(/C=C/C(C)=C/C=C/C(C)=C/C(=O)O)c(C)c1C,-1.4,-4.0%,-13%&1%,-8%,-4.3,.,2.3%
COc1ccc(NC(=O)Cn2cc(C(C)=O)c3ccccc32)cc1,-2.2,1.3%,12%,1%,-0.1,16%,6.2%
C[C@@]12C(=O)N(Cc3ccc(F)cc3)CC(=O)N1[C@H]1c3cc(Cl)ccc3OC[C@@H]1[C@@H]2c1ccccc1,3.0,-0.9%,.,-12%,.,19%,-0.1%
O=C(Cc1ccsc1)NCc1ccccc1F,4.6,-0.2%,1%,6%,.,-17%,-0.3%
CCN1CCN(C(=O)C2CCCN(S(=O)(=O)c3ccc(OC)c(OC)c3)C2)CC1 (stereo unspecified),-2.4,.,12%,-1%,?,-33%[inhibitor],0.1%
CCN1CCN(CC(O)COCc2cc(OC)c(OC)c(OC)c2)CC1 (stereo unspecified),0.6,-1.9%,27%,2%,2.9,-30%[inhibitor],-0.6%
O=C(Nc1cnc2ccccn2c1=O)c1ccc(F)cc1,-1.8,-14%,20%,1%,0.8,0%,-0.1%
CC(C)c1cc(C(=O)NCc2ccco2)no1,-1.7,1.2%,-27%,1%,7.8,-13%,2.8%
CCC(=O)NCCc1nc2cc(NC(=O)c3ccc(OC)cc3)ccc2n1C,-2.7,0.9%,5%,2%,-1.5,?,.
O=C(N1CCN(CCO)CC1)N1c2ccccc2CCc2ccccc21,-3.2,0.9%,7%,4%,-0.4,-13%,1.6%
COc1ccc(C2NC(=O)NC(C)=C2C(C)=O)cc1 (stereo unspecified),-0.6,-4.0%,-7%,-3%,1.5,2%,3.1%
CC(=O)c1ccc(N2CCN(S(=O)(=O)c3c(C)[nH]c(=O)[nH]c3=O)CC2)cc1,-0.2,.,8%,5%,-0.6,-28%,-2.2%
O=C(c1ccc2c(=O)n3c(nc2c1)CCC3)N1CCCSC1=Nc1ccccc1,3.5,-5.3%,.,-7%,.,-19%,0.2%
CCOC(=O)C1CCCN(c2c(NCc3ccco3)c(=O)c2=O)C1 (stereo unspecified),-2.7,-2.7%,6%,-2%,1.0,27%,1.4%
O=C(c1ccccc1)N1CCCCCC1,-2.2,2.8%,6%,15%,4.8,11%,8.0%
Cc1ccc(N=Cc2c(C)[nH]n(-c3nc4ccccc4[nH]3)c2=O)cc1,-1.4,-7.2%,4%,-2%,.,4%,3.2%
N#C/C(=C\c1cccc(Cl)c1)c1n[nH]c(Cn2cncn2)n1,-2.7,-29%,3%,-24%,-2.0,-24%,-1.1%
Cc1ccccc1-c1nc(CS(=O)(=O)CC(=O)N(C)C2CCCCC2)c(C)o1,0.8,-0.2%,2%,-11%,-1.0,?,3.8%
Cn1nccc1C(=O)N1CCCC(N2CCN(Cc3ccc4c(c3)OCO4)CC2)C1 (stereo unspecified),-3.8,2.7%,11%,3%,.,13%,-0.6%
COc1ccccc1NC(=O)Cn1nc(-c2ccncc2)nc1SCC(=O)NC1CCCC1,-0.9,-1.3%,0%,-3%,-0.3,19%[15.4 µM],0.3%
Cc1cnc(CNc2cc(-c3ccccc3CN(C)C)ncn2)cn1,.,.,-13%,.,0.9,.,1.4%
CCOC(=O)c1ccc(N2C(=O)CC(C)(CC)CC2=O)cc1,-1.9,-0.3%,16%,7%,2.5,29%,1.0%
O=C(c1ccco1)N1CCN(CC2CC3C=CC2C3)CC1 (stereo unspecified),42*,-0.7%,-16%,-12%,0.2,-21%,32%[38.3 µM]
O=C(O)CCSc1nnc(COc2ccc([N+](=O)[O-])cc2)n1-c1ccccc1,2.5,0.7%,9%,3%,0.5,?,-2.1%
CCCCNC(=O)C1CC(c2ccc(C(F)(F)F)cc2)=NO1 (stereo unspecified),-3.0,-1.1%,17%,4%,0.2,-1%,0.5%
Cc1ccc(C)c(S(=O)(=O)N2CCN(C(=O)[C@@H](NC(=O)c3ccc(F)cc3)C(C)C)CC2)c1,-6.4,-0.5%,.,-12%,.,?,0.4%
CN(C)c1ccc(C(=O)NNC(=O)C23CC4CC(CC(C4)C2)C3)cc1,2.6,-1.6%,.,-1%,.,-2%[15.4 µM],-1.5%

# Bioassay records: PubChem, National Center for Advancing Translational Sciences (NCATS)
